VDR inh = Inhibitors of the vitamin D receptor (VDR): qHTS | Potency, µM, for inactives: max response, negative = inhibition, hits mostly inhibitors | VDR-SRC2-3 peptide fluorescence polarization, 2 h | hit rate 0.93% among 400,000 | AID 504847, 2011 | Vitamin D3 receptor (Homo sapiens), P11473; active = well fitted inhibition curve with a large enough effect; inconclusive = small, poorly fitted or top-dose-only effect, or another doubt; inactive = no such curve, though single readings can be large or run the other way; also: series mostly up to about 120 µM
Target sequence (P11473 whole entry, looked up): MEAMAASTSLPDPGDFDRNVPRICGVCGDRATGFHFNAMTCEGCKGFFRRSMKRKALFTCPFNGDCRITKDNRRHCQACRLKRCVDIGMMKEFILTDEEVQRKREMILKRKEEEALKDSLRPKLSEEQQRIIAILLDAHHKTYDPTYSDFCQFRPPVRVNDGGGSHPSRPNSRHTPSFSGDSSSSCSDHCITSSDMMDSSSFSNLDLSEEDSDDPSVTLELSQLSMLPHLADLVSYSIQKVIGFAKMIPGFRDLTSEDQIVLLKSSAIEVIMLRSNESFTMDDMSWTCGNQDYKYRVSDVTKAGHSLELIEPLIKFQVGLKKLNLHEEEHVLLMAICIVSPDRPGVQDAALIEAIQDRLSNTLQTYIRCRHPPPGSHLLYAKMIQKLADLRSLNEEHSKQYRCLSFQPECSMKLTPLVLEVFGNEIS
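Fluorescence polarization assay measuring small-molecule disruption of VDR binding to the coregulator peptide SRC2-3. Compounds were pin-transferred (23 nl) into the reagent mix and incubated 2 h at room temperature before reading.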
* marks the source's active call; other numbers are inactive results; ? = inconclusive; & = joins results of further samples; ! = not active in a repeat. % is scaled to controls: 0 for no effect and ±100 for the full control effect; potency is read from the fitted curve at half-maximal effect.

VDR inh,Molecule
6%,COc1ccc(CC(=O)NNS(=O)(=O)c2ccccc2)cc1OC
5%,O=S(Cc1ccc(Cl)cc1)CC(O)COc1ccc(Cl)cc1 (stereo not given)
5%,Fc1ccccc1N1CCN(c2ncc3c(n2)CCN(Cc2ccc(Br)s2)C3)CC1
-10%,Cc1ccc(-c2ccc(SCC(=O)Nc3ccc4c(c3)OCCO4)nn2)cc1
-18%,Cc1nc([N+](=O)[O-])c(Br)n1CC(=O)c1cccc([N+](=O)[O-])c1
0%,CCC1Sc2ccccc2N(CC(=O)NC2CCCC2)C1=O (stereo not given)
-4%,Cc1ccc(NC(=S)N/N=C/c2ccc([N+](=O)[O-])s2)cc1
-9%,CC(=O)N1N=C(N)SC1(C)C
-3%,CSc1ncc(Cl)c(C(=O)Nc2c(C(=O)c3ccc(C)cc3)oc3ccccc23)n1
4%,Nc1ncnc2c1ncn2COC(CO)CO
-2%,CC(C)(C)NC(=O)C(c1ccc(F)cc1)N(CC1CCCO1)C(=O)c1csnn1 (stereo not given)
19%,CC(C)(C)C1CCc2onc(C(=O)Nc3ccc4c(c3)OCO4)c2C1 (stereo not given)
-4%,COc1ccc(CCOC(=O)c2ccc(NC(=O)CC#N)cc2)cc1
4%,Cc1cc(Cl)c(C)c(S(=O)(=O)Oc2ccccc2NC(=O)CCC(=O)O)c1Cl
0%,CC1(C(=O)N(c2ccccc2)C(C(=O)NC2CCCC2)c2ccccn2)CC(=O)N=C2C=CC=CN21 (stereo not given)
-19%,O=C(CSc1ccc(Cl)cc1)N1CCN(c2ccc([N+](=O)[O-])cc2Cl)CC1

Copied from the list.
COc1ccc(CCOC(=O)c2ccc(NC(=O)CC#N)cc2)cc1 @ VDR inh: -4%
CCC1Sc2ccccc2N(CC(=O)NC2CCCC2)C1=O (stereo not given) @ VDR inh: 0%
Fc1ccccc1N1CCN(c2ncc3c(n2)CCN(Cc2ccc(Br)s2)C3)CC1 @ VDR inh: 5%
Nc1ncnc2c1ncn2COC(CO)CO @ VDR inh: 4%

Additional structures follow:
VDR inh,Molecule
7%,Cc1cccc(CN2CC34CCC(CC3S2(=O)=O)O4)c1 (stereo not given)
-1%,CCOc1ccc(NC(=O)CN(C)C(=O)CCCc2c[nH]c3ccccc23)cc1OCC
-13%,O=C(COc1cccc(Cl)c1)Nc1ccccc1N1CCCCC1
89µM*,COc1ccc(CCNC(=O)/C=C/c2ccco2)cc1
?,O=C(OCC(=O)C12CC3CC(CC(C3)C1)C2)c1ccc(O)cc1
?,Cc1ccc(C(=O)/C=C/c2c(C)nn(-c3ccccc3)c2Cl)cc1
-17%,Cc1csc(=O)n1CCC(=O)OCC(=O)c1c(N)n(CC(C)C)c(=O)n(C)c1=O
3%,Cc1cccc(C)c1NC(=O)CNCC(=O)N(C)C

Three compounds out of the list, ordered by SMILES length, rising.
VDR inh,Molecule
7%,Cc1cccc(CN2CC34CCC(CC3S2(=O)=O)O4)c1 (stereo not given)
?,O=C(OCC(=O)C12CC3CC(CC(C3)C1)C2)c1ccc(O)cc1
-17%,Cc1csc(=O)n1CCC(=O)OCC(=O)c1c(N)n(CC(C)C)c(=O)n(C)c1=O

The list continues.
VDR inh,Molecule
3%,Clc1ccc(CN2CCSCC2)c(Cl)c1
1%,O=C(Nc1cccc(C(=O)N2CCOCC2)c1)NC1CCCCC1
0%,N#CC1CN(Cc2ccccc2)CN(Cc2ccccc2)C1
-12%,CC(C)c1cc(C(=O)N/N=C/c2cccnc2)cs1
23%,C=CCOC(=O)CCP(=O)(CCC(=O)OCC=C)c1ccccc1
14%&-1%,COc1ccc(Cn2ccnc2SCC(=O)Nc2nnc(C)s2)cc1
1%,COc1ccccc1NS(=O)(=O)c1ccc(OC)c([N+](=O)[O-])c1
?,CCCCn1c2c(c3ccccc31)CCc1nonc1-2
-12%,O=c1c2ccccc2oc2c1oc1ccccc12
-4%,CCCOC(c1ccccc1)(c1ccc(C(F)(F)F)cc1)C(Oc1nc(C)cc(C)n1)C(=O)O (stereo not given)
-1%,O=C(COc1ccccc1)Nc1ccc(S(=O)(=O)N2CCCCCC2)cc1
6%,CC(C)CN1C(=O)C(=O)N(CC(=O)NC2CCCc3ccccc32)C1=O (stereo not given)
8%,CCc1cn(C2CC(O)C(CO)O2)c(=O)[nH]c1=O (stereo not given)
-17%,CNC(=O)NCCN1CCCC1=O
-8%,COc1cc2nc(NCCc3ccccc3)n3nc(-c4cccnc4)nc3c2cc1OC
-6%,COc1cc(C)nc(OCCNC(=O)COc2ccc(Cl)cc2C)n1
-8%,C=C(C)CSc1nnc(-c2cc(OC)c(OC)c(OC)c2)n1N
-4%,CCOC(=O)c1oc2ccccc2c1CSc1nnnn1-c1ccc(C)cc1
-21%,CN(C(=S)NC(=O)C1CC1)c1ccc(O)cc1
2%,N#Cc1cc(N)ccc1-n1cccc1
-21%&-2%,Nc1ccc(NC(=O)c2cccc(C(=O)Nc3ccc(N)cc3Cl)c2)c(Cl)c1
11%,COc1ccc(CNCCc2ccc([N+](=O)[O-])cc2)c(OC)c1OC
-23%,O=C1N(c2ccccc2C(F)(F)F)OC1(Cc1ccccc1)c1ccccc1 (stereo not given)
9%,Cc1nc2nc(NCc3ccc(Cl)cc3)[nH]n2c(=O)c1Cc1ccccc1
-10%,Cc1ccc(NC(=O)CSc2nc(C3CCCC3)nc3c2c(=O)n(C)c(=O)n3C)c(C)c1
-1%,COC(=O)c1ccc(N2OC3(C)C=CC2CC3)cc1 (stereo not given)
12%,COc1cc(SC)ccc1C(=O)N1CC(C)OC(C)C1 (stereo not given)
40µM*!,O=[N+]([O-])c1ccc(O)c2ncccc12
-19%,CC1CCN(S(=O)(=O)c2ccc(NC(=O)[C@@H]3CCCN3C(=O)c3cccs3)cc2)CC1
14%,O=C(C1CC1)N1CCC(c2nc(-c3ccc(S(=O)(=O)N4CCCC4)cc3)no2)CC1
-3%,CCC(CC)NC(=O)c1ccc2nc[nH]c2c1
-5%,CS(=O)(=O)N(CC(=O)N1CCCCCC1)c1cccc([N+](=O)[O-])c1
-4%,COc1ccc(CN2CCC(Oc3cc(C(=O)NC4CC4)ccc3OC)CC2)c(O)c1
-3%,O=C(O)c1ccccc1NC(=O)c1ccccc1Nc1ccccc1
-1%,O=C(CSc1nnc(-c2ccccc2O)o1)Oc1ccc(Br)cc1
-6%,CCN(CC)S(=O)(=O)c1ccc2c(c1)c(=O)c(C(=O)N1CCN(c3ccc(F)cc3)CC1)cn2C
-18%,O=C(O)c1ccccc1-c1nc2cc(Cl)ccc2c(=O)n1O
7%,COc1ccc(OC)c(NC(=O)c2cn(C)c(=O)c3cc(OC)c(OC)cc23)c1
-19%,CSc1nn(Cc2ccc(Br)cc2)c(N(C(C)=O)C(C)=O)c1S(=O)(=O)c1ccccc1
-16%,O=C1c2ccccc2C(=O)N1CN(C(=O)COc1ccccc1)c1ccccc1
-6%,COc1cc(C(=O)N2CCCN(c3nc4cc(C)ccc4cc3C#N)CC2)cc(OC)c1OC
0%,CCCn1c(C(CO)Nc2nc(C)cs2)nc2ccccc21 (stereo not given)
-11%,Nc1nc2ncc(C(=O)c3cc(F)ccc3O)cc2s1
9%,CC(Oc1ccc(F)cc1)C(=O)Nc1cc(-c2ccc(F)c(F)c2)no1 (stereo not given)
-8%,C[N+]1(C)C2CCC1CC(OC(=O)C(O)c1ccccc1)C2 (stereo not given)
-7%,O=C1c2cccnc2C(Nc2ccc(F)c(Cl)c2)N1Cc1cccs1 (stereo not given)
10%,CC(C)OC(=O)CSc1nnc(COc2ccc([N+](=O)[O-])cc2)n1C
-6%,COc1ccc(N(C(=O)c2cnccn2)C(C(=O)NC2CCCCC2)c2ccc(Cl)cc2)cc1 (stereo not given)
3%,OC(CC#CCN1CCOCC1)(c1ccccc1)c1ccccc1
8%,CC(C)(C)C1CCC(OCC(O)CN2CCN(c3ccccn3)CC2)CC1 (stereo not given)
-22%,O=C(O)Cn1c(=O)n(Cc2ccccc2)c2ccccc21
-12%,COc1ccc(C(=O)NCC(=O)OCc2ccc(F)cc2)cc1
1%,Cc1ccccc1Oc1cc(NC(=O)Cn2cnc([N+](=O)[O-])c2)cc([N+](=O)[O-])c1
8%,Cc1ccc(OC(C)C(=O)Nc2ccc(S(=O)(=O)N3CCOCC3)cc2)cc1 (stereo not given)
6%,O=C(O)C1CC=CCC1C(=O)Nc1ccccc1C(=O)N1CCN(c2ccc(Cl)cc2)CC1 (stereo not given)
17%,CC(=O)Nc1ccc(NC(=O)C2CCCN2C(=O)Nc2cccc(F)c2)cc1 (stereo not given)

Some of the entries so far, bar-delimited.
Compound | VDR inh
O=C(O)Cn1c(=O)n(Cc2ccccc2)c2ccccc21 | -22%
Cc1ccc(OC(C)C(=O)Nc2ccc(S(=O)(=O)N3CCOCC3)cc2)cc1 (stereo not given) | 8%
O=C(O)C1CC=CCC1C(=O)Nc1ccccc1C(=O)N1CCN(c2ccc(Cl)cc2)CC1 (stereo not given) | 6%

(more compounds)
VDR inh,Molecule
1%,COC(=O)c1[nH]c2cc(OC)ccc2c1NC(=O)c1c(F)cccc1F
-8%,CCOC(=O)N1CCN(C(=O)COc2cccc3c2CCN(Cc2cccc(C)c2)C3=O)CC1
1%,Cc1cc(C)cc(NC(=O)CN2CCCN(S(=O)(=O)c3ccc(Br)s3)CC2)c1
-26%,CCOc1ccc(C(=O)N2CCN(CCc3ccccc3)CC2)cc1OCC
-7%,COc1cc([C@H]2[C@@H]3CCCC[C@]3(O)CCN2CC(=O)Nc2ccc(C)cc2)ccc1O
16%,Cc1cc(C)n(-c2ccc(C(=O)Nc3cccc(S(=O)(=O)N(C)C)c3)cc2)n1
-9%,COc1ccc(-c2nc(C)c(CCNC(=O)c3cccs3)s2)cc1
2%,C=CCn1c(C)cc(C(=O)COC(=O)[C@@H](NC(=O)c2ccccc2Cl)C(C)C)c1C
-7%,CCN(CC)C(=O)c1[nH]cnc1C(=O)N[C@@H](Cc1ccccc1)C(=O)OC(C)(C)C
-21%,CCOc1ccc(C(C)=O)cc1COC(=O)c1ccccc1C(=O)N(C)Cc1ccccc1
15%,CN(Cc1ccc(F)cc1)C(=O)c1cccc(OC2CCN(C3CCCC3)CC2)c1
4%,COc1ccccc1N(C)S(=O)(=O)c1ccc(C(=O)NCCc2ccc(F)cc2)cc1
-21%,Cc1ccc(NC(=O)CSc2n[nH]c(-c3ccccn3)n2)cc1
-16%,COc1cc(CNS(=O)(=O)CCl)cc(OC)c1OC
-15%,COc1ccc(C2c3c(c(C)c(C)oc3=O)Oc3c(C)c(C)oc(=O)c32)cc1
6%,O=C(Nc1ccc(N2CCOCC2)c(F)c1)c1cccs1
4%,Fc1ccc(Nc2ncnc3ccccc23)cc1
-2%,Cc1ccc(N/C=C(\C#N)S(=O)(=O)c2ccccc2)cc1
-3%,O=C(NCCN1CCC(Cc2ccccc2)CC1)C1CCN(S(=O)(=O)N2CCC3(CC2)OCCO3)CC1
1%,O=S(Cc1ccc(Br)cc1)Cc1nnc(SCc2c(Cl)cccc2Cl)n1-c1ccccc1 (stereo not given)
10%,O=C(c1ccccc1)N1N=C(c2ccccc2)CC1c1ccc2nccnc2c1 (stereo not given)
-9%,CCOC(=O)CNC(=O)CSc1nnc(-c2cccc(C)c2)n1-c1ccc(OC)cc1
2%,CCOC(=O)Cc1cc(=O)[nH]n(-c2ccccc2)c1=O
-10%,CN=C1SC(CC(=O)Nc2sc(C)c(C)c2C(=O)OC)C(=O)N1C (stereo not given)

Structures listed so far marked active in VDR inh:
VDR inh,Molecule
89µM*,COc1ccc(CCNC(=O)/C=C/c2ccco2)cc1
40µM*!,O=[N+]([O-])c1ccc(O)c2ncccc12

The listing continues:
VDR inh,Molecule
-4%,CC(=O)NC12CC3CC(C1)CC(C(=O)Nc1c(C)n(C)n(-c4ccccc4)c1=O)(C3)C2
-1%,C[C@@]12C(=O)N(c3ccc(F)cc3)C(=O)N1[C@@H]1c3ccccc3OC[C@@H]1[C@H]2c1ccccc1
-20%,CCOc1ccc(S(=O)(=O)N2CCC(C(=O)NCC3CCCO3)CC2)cc1C (stereo not given)
6%,CCn1ccnc1CN(C)Cc1nc(-c2ccccc2)no1
15%,CCOC(=O)CCC(=O)Nc1cc(S(=O)(=O)N2CCOCC2)ccc1N1CCCCC1
-12%,CCN(CCO)Cc1csc2ccc(C(C)(C)C)cc12
-7%,FC(F)(F)Oc1ccc(NC(=S)NCCCN2CCOCC2)cc1
13%,COc1ccc(C(=O)n2nc(C)c(Br)c2C)cc1OC
-5%,Cc1ccccc1CSCC(=O)Nc1ccccc1Br
-19%,COc1ccc(C)cc1S(=O)(=O)N(C)CC(=O)NC1CCCC1
-6%,Cc1ccc(NC(=O)CSc2nc(=O)n(CCCN3CCOCC3)c3c2CCCC3)cc1
-2%,CCCCc1cc(=O)oc2cc(C)cc(OCC(=O)NCc3ccccn3)c12
6%,CCCc1ccc(OC(=O)c2cccs2)cc1
5%,O=C(O)Cn1cc2c(n1)CCCCC2
-1%,O=C(COC(=O)c1ccc(Br)o1)NCc1cccs1
0%,COc1cc(N)ccc1C(=O)O
-7%,COc1ccc(NC(=O)Nc2nnc(CC(=O)Nc3ccccc3)s2)cc1
-3%,C=CCOc1ccc2nc(NC(=O)OC)[nH]c2c1
7%,CCOC(=O)c1cc(CC)sc1NC(=O)c1ccc(N2C(=O)CCC2=O)cc1
21%,COc1cccc(NC(=O)CSc2nc3ccc(NC(=O)c4cccs4)cc3s2)c1
-15%,C=CCn1c(-c2cc3c(s2)CCC(CC)C3)n[nH]c1=S (stereo not given)
-6%,CCn1c(CNC(=O)C23CC4CC(CC(C4)C2)C3)nnc1SCC(=O)Nc1ccc(OC)cc1
-19%,CCCc1oc(C(=O)O)cc1CN1CCCC1
-2%,O=C(O)CCC(=O)Nc1ccccc1C(=O)N1CCN(c2ccc(Cl)cc2)CC1
1%,Cc1c(C(=O)Nc2ccccc2C(=O)N2CCOCC2)cccc1[N+](=O)[O-]

An excerpt, so the mix of outcomes need not match the whole.
